Bioassay records from PubChem BioAssay.
Hsc70 ATP site – Hsc70 inhibitors, probe displacement, primary screen, biochemical, fluorescence polarization (AID 568); 83,000 tested, under 10 active; displacement, % at 20 µM; hits with a dose series show IC50 in µM; Hsc70 fluorescence polarization, probe displacement; higher % means a stronger effect; strong numbers were not always called active;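 active = displacement above 50% without optical interference and an IC50 on retest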;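 note: ATPase domain with a fluorescein-tagged ATP probe; 0% = vehicle and 100% = excess ADP; read after one hour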
WNV protease inh – WNV NS2B-NS3 proteinase inhibition. WNV NS2B-NS3 protease, fluorogenic substrate Ex360/Em465; active compounds read low. z-score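 (tested at a level between 10 and 100 µM)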. actives 0.18% (n = 65,000);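 active = z-score at -3 or under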;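 note: score is relative to mean and spread of the compound wells of a plate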
Target sequence (P06935 1371-1501 limits assumed): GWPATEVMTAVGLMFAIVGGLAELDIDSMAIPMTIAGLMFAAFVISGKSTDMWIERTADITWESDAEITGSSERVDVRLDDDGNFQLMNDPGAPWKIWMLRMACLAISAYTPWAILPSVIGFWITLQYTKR
Target sequence (P06935 1502-1679 limits assumed): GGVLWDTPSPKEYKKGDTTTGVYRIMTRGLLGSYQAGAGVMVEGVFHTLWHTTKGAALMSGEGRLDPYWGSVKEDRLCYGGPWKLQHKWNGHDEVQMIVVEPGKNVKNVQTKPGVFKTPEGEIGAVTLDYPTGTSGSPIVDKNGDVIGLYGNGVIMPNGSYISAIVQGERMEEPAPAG
MT1-MMP reporter – inhibitors of MT1-MMP promoter transcription, cell-based, luciferase reporter, luminescence (AID 618). MT1-MMP promoter luciferase reporter cells, luminescence. calls from a first round at 10 µM; hits with a dose series show EC50 in µM. actives 0.62% (n = 87,000);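 active = over half of the reporter light lost at 10 µM or EC50 under 50 µM; inactive = the rest and hits that failed the dose series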;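 note: actives suppress MT1-MMP promoter-driven transcription so potencies describe inhibitors; HT1080 fibrosarcoma cells; overnight exposure; toxic or luciferase-blocking compounds were not removed from the actives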
Starred values were filed as active, the others as inactive; i = inactive; · = not tested or not shown.

SMILES	Hsc70 ATP site	WNV protease inh	MT1-MMP reporter
Cc1nnsc1C(=O)Nc1ccccc1Cl	2.2%	0.96	i
CCOc1ccccc1Nc1ccc(C(=O)O)cc1NC(C)=O	-6.0%	-1.2	i
O=C(CCn1c(=O)c2ccccc2n(Cc2cc(=O)n3ccccc3n2)c1=O)NCc1ccco1	1.1%	-1.1	i
CCc1c(C)nc2cc(-c3ccc(OC)c(OC)c3)nn2c1N1CCCC1	-7.4%	1.5	i
O=C(NCc1ccc2c(c1)OCO2)c1c(O)c2cccc3c2n(c1=O)CCC3	3.7%	-0.97	i
CC(=O)Nc1ccc(S(=O)(=O)n2cnc3cc(C)c(C)cc32)cc1	-3.2%	-0.78	i
Cc1nn(-c2ccccc2)c(C)c1NC(=O)Cc1cccs1	-0.8%	0.28	i
CC(=O)N1CC2(C)CN(C(C)=O)CC(C)(C1)C2	1.3%	0.04	i
O=C(Nc1ccc(N2CCOCC2)c(Cl)c1)c1ccco1	-0.7%	1.5	i
c1ccc(-n2ncc3c(NCCCN4CCOCC4)ncnc32)cc1	-1.1%	-1.8	i
N#Cc1nc(COc2ccc(-c3ccccc3)cc2)oc1NCCCN1CCOCC1	-1.8%	-0.5	i
COC(=O)c1ccc(NC(=O)CNS(=O)(=O)c2cccs2)cc1	-5.0%	·	i
O=C(CCn1nc(-c2ccccc2)ccc1=O)N1CCCC1	3.7%	-0.65	i
Cn1c(O)c(C(C#N)=C2N=c3ccccc3=N2)c2ccccc21	1.7%	·	i
C/C(CC(C)(C)C1CCCCC1)=N\NC(N)=S	5.9%	·	i

Reformatted with two lines to a compound: entries from further up
Below each compound: Hsc70 ATP site, WNV protease inh, MT1-MMP reporter
- CCOc1ccccc1Nc1ccc(C(=O)O)cc1NC(C)=O
    -6.0%, -1.2, i
- O=C(CCn1c(=O)c2ccccc2n(Cc2cc(=O)n3ccccc3n2)c1=O)NCc1ccco1
    1.1%, -1.1, i
- CCc1c(C)nc2cc(-c3ccc(OC)c(OC)c3)nn2c1N1CCCC1
    -7.4%, 1.5, i
- O=C(NCc1ccc2c(c1)OCO2)c1c(O)c2cccc3c2n(c1=O)CCC3
    3.7%, -0.97, i
- CC(=O)Nc1ccc(S(=O)(=O)n2cnc3cc(C)c(C)cc32)cc1
    -3.2%, -0.78, i

The listing continues.
SMILES	Hsc70 ATP site	WNV protease inh	MT1-MMP reporter
CC(C)N(Cc1nc(-c2ccccc2)no1)C(=O)CN(C)S(=O)(=O)c1ccccc1	3.4%	-0.39	i
CCSc1nnc(-c2ccncc2)o1	5.1%	·	i
N#C/C(=C\N1CCN(Cc2ccc3c(c2)OCO3)CC1)c1nc2ccccc2s1	-63%	-0.27	i
O=C(CCN1CCOCC1)c1ccc2c(c1)OCCO2	-2.6%	·	i
CC(=O)C1=C(O)C(=O)N(c2ccc(S(N)(=O)=O)cc2)C1c1ccc([N+](=O)[O-])cc1 (stereo unspecified)	-0.7%	·	i
N#Cc1ccccc1NC(=O)CSc1nccn1CCc1ccccc1	0.2%	0.73	i
O=C(CCCNS(=O)(=O)c1cccc2nsnc12)NCc1ccc(Cl)cc1	-2.6%	0.39	i
O=C1NC2=C(C(=O)c3ccccc32)C(c2ccccc2)N1 (stereo unspecified)	3.0%	-0.62	i
CCN(CC)C(=O)C1CCN(Cc2cccc(OCc3ccccc3)c2)CC1	-3.2%	0.3	i
C=CCNc1ncnc2c1cnn2-c1ccc(OC)cc1	-5.1%	1.5	8.5µM*
O=C(CN1C(=O)COc2ccccc21)NCc1ccc(C(=O)O)cc1	1.2%	0.24	i
NC(=O)C1(N2CCCCC2)CCN(C2CC(=O)N(Cc3cccs3)C2=O)CC1 (stereo unspecified)	0.6%	-0.95	i
CC(C)(C)C(=O)CCN1C(=O)C2(OCCO2)c2ccccc21	2.7%	-0.48	i
O=C(c1ccc2c(c1)OCO2)N1CCCC(c2ccccc2)C1 (stereo unspecified)	-2.9%	1.6	i
Cc1ccc(N(C(=O)C2CCC(=O)N2)C2(C(=O)NC3CCCC3)CCCCC2)cc1 (stereo unspecified)	1.6%	·	i
Cc1cc2ccccc2cc1CN1CCOCC1	3.5%	-0.57	i
O=S(=O)(N1CCCCC1)N1CCN(c2ccc(F)cc2)CC1	0.6%	0.54	i
CCCOc1cccc(NC(=O)c2cc(C)oc2C)c1	3.7%	2.3	i
CC(=O)c1ccc(N2CCN(C(=O)c3cc4c(-c5ccccc5F)nn(C)c4s3)CC2)cc1	1.9%	-1.1	i
CCCS(=O)(=O)N1CCN(CCCc2ccccc2)CC1	-2.8%	1.2	i
Cc1cc2ncn(C(=O)N3CCCCCC3)c2cc1C	-0.6%	·	i
O=C1c2ccccc2C(=O)N1CCn1nc(Cl)nc1Cl	4.7%	0.15	i
CC1CCN(c2c(NCc3ccc(C(=O)NCC4COc5ccccc5O4)cc3)c(=O)c2=O)CC1 (stereo unspecified)	3.4%	0.08	i
O=C(c1ccco1)n1nc(NCc2ccccc2)nc1NCc1ccccc1	-2.0%	-0.56	i
COCC(C)n1c(C)cc(C(=O)CSc2nc3ccccc3c(=O)[nH]2)c1C (stereo unspecified)	-1.7%	-1.1	i
CC(CN1CCOCC1)C(=O)c1ccccc1 (stereo unspecified)	0.1%	·	i
Cc1ccc(NC(=O)c2cc(NC(=O)C3CC=CCC3C(=O)O)ccc2N2CCOCC2)cc1 (stereo unspecified)	1.3%	-0.22	i
CCC(NS(=O)(=O)c1ccc(C)cc1)C(=O)N1CCC2(O)CCCCC2C1 (stereo unspecified)	1.7%	-0.1	i
C[N+]1(CC(=O)Nc2ccc(F)cc2)CCN(C(=O)c2ccco2)CC1	-5.4%	·	i
COc1cccc(-n2c(SCC(=O)Nc3cc(C)on3)nc3c([nH]c4ccccc43)c2=O)c1	2.4%	0.57	i
CC(C)C(O)(C#CCN1CCCC1)c1ccccc1 (stereo unspecified)	0.6%	·	i
CC(=O)NCC(=O)OCC(=O)Nc1ccc(C(C)=O)cc1	1.0%	-1.2	i
O=C(O)CCCn1nc(-c2ccccc2)c2ccccc21	0.0%	0.67	i
CN1CC(=O)N(CC(=O)Nc2ccc(Cl)c(C(F)(F)F)c2)C1=O	3.8%	-0.65	i
O=C(Cc1ccccc1)Nc1scc(-c2ccccc2)c1C(=O)N1CCOCC1	-2.6%	·	i
CCc1nnc2c3cnn(-c4ccccc4)c3ncn12	0.2%	0.11	i
CCOC(=O)N1CCN(C(=O)c2cn(C)c(=O)c3c2c2ccccc2n3C)CC1	-1.8%	0.14	i
CCOc1ccc(C(O)Cc2nc3ccccc3n2C)cc1 (stereo unspecified)	3.0%	·	i
COc1ccc(C(=O)N2CCN(c3c(C)cccc3C)CC2)cc1OC	-6.0%	-0.76	i
Cc1cc(C)c2c(=O)[nH]c(=O)n(Cc3ccccc3)c2n1	-13%	-0.19	i
Cc1ccc(C(C(=O)NCc2ccc(F)cc2)N(C(=O)c2csnn2)C2CC2)o1 (stereo unspecified)	-0.3%	-0.56	i
O=C(NCC1CCCO1)c1ccc2nc(N3CCCCC3)sc2c1 (stereo unspecified)	2.0%	-1	i
O=C(CN1C(=O)C2CCCCC2C1=O)Nc1nc(-c2ccccn2)cs1 (stereo unspecified)	0.6%	·	i
COc1ccc(-n2nnnc2SCC(=O)c2ccc(O)c(O)c2)cc1	0.6%	-1.2	i
COc1ccc2c(=O)c(-c3ccccc3)c(C)oc2c1	1.3%	·	i
Cc1nn(CC(=O)Nc2ccc(C(=O)N(C)C)cc2)c(=O)c2ccccc12	-3.2%	-0.68	i
Cc1cccc(Nc2nc(-c3cccs3)cs2)n1	-3.3%	·	i
CCCOc1ccc(N2CC(C(=O)Nc3ccccc3F)CC2=O)cc1 (stereo unspecified)	-11%	-0.17	i
COC(=O)c1ccc(Cn2nnc3ccccc3c2=O)o1	7.9%	-1.5	i
Cc1ccc2oc(=O)c3cnn(CC(=O)N4CCCCCC4)c3c2c1	1.0%	-0.36	i
COc1cccc(-c2cc(C(F)(F)F)nc(N3CCN(c4ccccc4)CC3)n2)c1	-3.8%	1.6	i
COc1cc(NC(=O)CN2C(=O)NC(C)(CC(C)C)C2=O)cc(OC)c1 (stereo unspecified)	-0.2%	0.79	i
CCCCOC(=O)c1cccc(NC(=O)CC)c1	0.2%	0.07	i
O=C(CSc1nnc(-c2ccco2)n1CC1CCCO1)N1CCCCC1 (stereo unspecified)	-5.0%	0.29	i
Cc1c(NC(=O)c2noc3c2CCc2ccccc2-3)c(=O)n(-c2ccccc2)n1C	2.6%	-0.05	i
O=C(CCN1C(=O)c2ccccc2C1=O)Nc1cc(F)ccc1F	4.3%	·	i
CCOc1ccc(NC(=O)CN(C2CCCCC2)S(C)(=O)=O)cc1	1.1%	·	i
CCCCNC(=O)c1cccc(C(=O)NCCCC)c1	-0.7%	2.2	i
CCOC(=O)Cc1c(C)nc2c(-c3ccc(Cl)cc3)c(C)[nH]n2c1=O	0.9%	·	i
CC1(C)CC(=O)CC(=Nc2ccc(C(=O)O)cc2)C1	1.9%	0.08	i

Compound profiles, from the list above. Order of screens: Hsc70 ATP site, WNV protease inh, MT1-MMP reporter
CC(CN1CCOCC1)C(=O)c1ccccc1 (stereo unspecified) is listed with 0.1%, ·, i
COc1cccc(-c2cc(C(F)(F)F)nc(N3CCN(c4ccccc4)CC3)n2)c1 is listed with -3.8%, 1.6, i
CN1CC(=O)N(CC(=O)Nc2ccc(Cl)c(C(F)(F)F)c2)C1=O is listed with 3.8%, -0.65, i
CCC(NS(=O)(=O)c1ccc(C)cc1)C(=O)N1CCC2(O)CCCCC2C1 (stereo unspecified) is listed with 1.7%, -0.1, i
O=C(CN1C(=O)C2CCCCC2C1=O)Nc1nc(-c2ccccn2)cs1 (stereo unspecified) is listed with 0.6%, ·, i

(listing goes on)
SMILES	Hsc70 ATP site	WNV protease inh	MT1-MMP reporter
Cc1ccccc1Cn1cc(S(=O)(=O)CC(=O)N2CCCCC2)c2ccccc21	-3.5%	·	i
Cn1nc(-c2ccccc2)c(-c2nc(-c3ccccc3Cl)no2)c1Cl	-2.2%	·	i
O=C(COC(=O)c1cnccn1)NCc1ccccc1	0.8%	·	i
Cc1c(-c2ccco2)[n+](=O)c2c(n1[O-])CCCCC2	5.2%	-0.27	i
CC(C)=CC(=O)Nc1nnc(C(C)C)s1	4.6%	·	i
COc1ccc(S(=O)(=O)NCc2ccc3c(c2)OCO3)cc1C	-1.9%	·	i
CCOC(=O)C1CCN(C(c2cccnc2)c2c(NC(=O)c3ccco3)sc(C)c2C)CC1 (stereo unspecified)	-1.3%	-0.29	i
Cc1cc(N(CN2CCCC2=O)C(=O)c2ccc(F)cc2)no1	0.0%	-0.05	i
CCOC(=O)NC(=O)COC(=O)Cc1cc(OC)c(OC)c(OC)c1	-2.8%	0.78	i
C1CCN(c2nc3nonc3nc2N2CCCCC2)CC1	-5.1%	-0.61	i
O=C(c1ccncc1)N1C2C=CC(C2)C1(C(F)(F)F)C(F)(F)F (stereo unspecified)	1.5%	1.2	i
Cc1onc(-c2ccccc2Cl)c1C(=O)NCc1cccnc1	-1.9%	1.4	i
CCCCS(=O)(=O)Nc1ccc(C(=O)NCC2CCCO2)cc1 (stereo unspecified)	0.0%	-0.31	i
COc1ccccc1C1C(C(N)=O)=C(C)Nc2nc(-c3ccc(Cl)cc3)nn21 (stereo unspecified)	1.6%	-0.12	i
CCOC(=O)N1CCC(NC(=O)CSc2cc(=O)n(C)c3ccc(Cl)cc23)CC1	0.8%	-0.47	i
O=C1Nc2c(c(=O)[nH]c(=O)n2-c2ccccc2)C1(Nc1ncccn1)C(F)(F)F (stereo unspecified)	-6.3%	-0.01	i
Cc1cc(S(=O)(=O)NCc2cccnc2)ccc1-n1cnnn1	-1.1%	-1.4	i
Cc1cc(N2CCN(C(=O)c3ccco3)CC2)nc(-c2ccccc2)n1	2.9%	0.73	i
CCOC(=O)Cc1c(C)nc2cc(C)nn2c1C	1.3%	·	i
C=CCOC(=O)C1C(=O)CC(C)(O)C(C(=O)OCC=C)C1c1ccc(OC)cc1 (stereo unspecified)	1.5%	-0.12	i
CCCCN1C(=O)C2C(C(=O)Nc3cccc(OC)c3)C3C=CC2(O3)C1C(=O)NC1CCCCC1C (stereo unspecified)	-5.0%	-0.25	i
CCOCCCNCc1ccc(OC)c(OC)c1	-4.1%	1.2	i
C=CCN1CC(c2nc3ccccc3n2Cc2cccc3ccccc23)CC1=O (stereo unspecified)	5.3%	·	i
O=C(CCNS(=O)(=O)c1ccc(Br)s1)N1CCN(c2ccccc2)CC1	-1.5%	-0.13	i
COc1ccc(NC(=O)CCCn2c(=O)[nH]c3ccccc3c2=O)cc1	-4.4%	-0.54	i
O=C(CN1CCN(C(=O)c2ccco2)CC1)Nc1c2c(nc3c1CCC3)CCCC2	2.6%	-0.52	i
CN(CCc1ccccn1)C(=O)c1nn2c(C(F)(F)F)cc(-c3ccco3)nc2c1Cl	0.2%	0.98	i
Cc1occc1C(=O)n1cnc2ccccc21	-1.0%	0.26	i
CCC1CCc2c(sc3nc(SCC(=O)NCc4ccco4)n(-c4ccccc4)c(=O)c23)C1 (stereo unspecified)	-3.2%	·	i
Cc1oc(-c2cccc(Cl)c2)nc1CN1CCCC(C(=O)NC(C)c2ccc3c(c2)OCCO3)C1 (stereo unspecified)	-1.0%	-0.22	i
O=S1(=O)CCN2C(c3ccco3)=CSC2=N1	-6.2%	-0.7	i
O=C(C1CCN(c2nnc(-n3cccc3)s2)CC1)N1CCN(Cc2ccc3c(c2)OCO3)CC1	4.1%	0.96	i
COC(=O)Nc1c(-c2ccccc2)nc2ccc(C)cn12	-0.2%	-1.3	i
Cc1cccc(-n2ccnc2SCC(=O)Nc2nnc(C)s2)c1	1.5%	-0.12	i
